High-throughput results as filed in PubChem BioAssay.
NS1 inh = blocks influenza NS1 protein function; AID 2326; S. cerevisiae slowed by influenza A NS1, growth recovery by OD600; Potency, µM (titrated, usually from 46.1 µM), inactives show at the highest dose activity, positive = more growth; actives 0.4% (n = 270,000); active means well fitted rising curve with a large enough effect; inconclusive means small, poorly fitted or top-dose-only effect; inactive means no such curve, though single readings can be large or run the other way; note: nearly all actives have a fitted effect of over 50% in size
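Compounds were scored for reversing the slow growth caused by influenza A NS1 in S. cerevisiae, measured by optical density at 600 nm. Assay medium contained 2% galactose at pH 6.0; NS1-free yeast of the same strain were the positive control.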
RE007 growth inh = less growth of the S. pombe RE007 Vpr strain | S. pombe RE007 Vpr strain, BacTiter-Glo ATP luminescence, 24 h; control for the full effect not named in the record | Potency, µM (highest dose often 92.2 µM), inactives show top-dose activity change, negative = less growth | actives 0.21% (n = 360,000) | AID 651644; active = well fitted falling curve with a large enough effect; inconclusive = small, poorly fitted or top-dose-only effect; inactive = no such curve, though single readings can be large or run the other way;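 note: % is set by controls: 0 for no effect and ±100 for the full control effect; nearly all actives have a fitted effect of over 50% in size; the assay follows cell death caused by Vpr and the record does not say whether a fall means rescue or toxicity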
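Fission yeast strain RE007, carrying one chromosomally integrated HIV-1 vpr copy, was seeded at OD 0.01 in PMG+AL medium with 23 nL pinned compound. After 24 h at 30 °C and 99% humidity, viability was read by BacTiter-Glo luminescence.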
StopGo reporter = FMDV 2A StopGo reporter, luciferase signal. Potency, µM (doses to about 57.9 µM), without a hit: at the top dose signal change, negative = less light. human cells with a luciferase reporter of 2A StopGo recoding; control for the full effect not named in the record. AID 1159524. actives 1.2% (n = 410,000); active = well fitted falling curve with a large enough effect; inconclusive = small, poorly fitted or top-dose-only effect; inactive = no such curve, though single readings can be large or run the other way; tested in HEK293T cells; note: % is set by controls: 0 for no effect and ±100 for the full control effect; nearly all actives have a fitted effect of over 45% in size; luciferase light after 4 h
MARV entry inh = blocks Marburg virus binding to or entry into cells. Marburg virus pseudotyped entry inhibition, cell reporter; control for the full effect not named in the record; about a third of the inactives were read at about 46 µM. Potency, µM (titrated, usually from 37.8 µM), for the others: at the top dose activity change, negative = inhibition, hits mostly inhibitors. actives 1.8% (n = 300,000). AID 540276; active = well fitted inhibition curve with a large enough effect; inconclusive = small, poorly fitted or top-dose-only effect, or effect the other way; inactive = flat fitted curve, though single readings scatter; tested in HEK293 cells; about a fifth of its hits are not listed in these tables; note: % is set by controls: 0 for no effect and ±100 for the full control effect; luciferase read-out
Cruzain inh noDet = cruzain (T. cruzi) inhibition without detergent; P25779; purified cruzain, Z-FR-AMC fluorescence, no detergent; Potency, µM, for inactives: max response, negative = inhibition, usual class: inhibitors; actives 2.3% (n = 200,000);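 note: plate controls were enzyme without inhibitor for no effect and buffer without enzyme for full effect; nearly all actives have a fitted effect of over 40% in size; top concentration of the series not given in the record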
Target sequence (P25779 123-467 limits assumed): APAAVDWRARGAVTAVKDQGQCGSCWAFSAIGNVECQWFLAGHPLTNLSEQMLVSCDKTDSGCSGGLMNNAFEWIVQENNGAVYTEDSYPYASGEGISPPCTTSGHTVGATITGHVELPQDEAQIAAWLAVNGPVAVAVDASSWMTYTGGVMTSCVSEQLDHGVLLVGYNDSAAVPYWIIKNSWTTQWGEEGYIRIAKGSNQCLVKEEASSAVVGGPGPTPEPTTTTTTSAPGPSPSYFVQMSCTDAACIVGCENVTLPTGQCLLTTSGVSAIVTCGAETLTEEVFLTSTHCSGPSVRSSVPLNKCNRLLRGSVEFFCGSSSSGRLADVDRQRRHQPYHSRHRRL
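Purified cruzain at 1.5 nM, pre-incubated 15 min with compound at room temperature in 100 mM sodium acetate pH 5.5, 5 mM DTT, 0.00005% Triton X-100. Reaction started with 2 uM Z-FR-AMC; AMC fluorescence increase over 60 s gives rate.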
LASV entry inh = inhibitors of Lassa virus binding or cell entry. Lassa virus pseudotype entry inhibition, cell reporter; control for the full effect not named in the record. Potency, µM (titrated, usually from 37.9 µM), without a hit: at the top dose activity change, negative = inhibition, actives largely listed as inhibitors. actives 1.2% (n = 300,000); active means well fitted inhibition curve with a large enough effect; inconclusive means small, poorly fitted or top-dose-only effect, or effect the other way; inactive means flat fitted curve, though single readings scatter; tested in HEK293 cells; note: % is set by controls: 0 for no effect and ±100 for the full control effect; nearly all actives have a fitted effect of over 50% in size; luciferase read-out
Cruzain inh Det = cruzain (T. cruzi) inhibition with detergent; purified cruzain, Z-FR-AMC fluorescence, 0.01% Triton; Potency, µM, for the others: max response, negative = inhibition, usual class: inhibitors; actives 0.43% (n = 200,000); P25779;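 note: plate controls were neutral wells for no effect and buffer without enzyme for full effect; nearly all actives have a fitted effect of over 40% in size; top concentration of the series not given in the record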
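Steps: dispense cruzain (1.5 nM final) in acetate buffer pH 5.5 with DTT and 0.01% Triton X-100; pin-transfer compounds; incubate 15 min RT; add Z-FR-AMC (2 uM final); read fluorescence every 30 s, using the 60 s intensity change.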
SARS PLpro yeast = blocks SARS-CoV papain-like protease in a yeast assay | S. cerevisiae expressing SARS-CoV PLpro, growth rescue; control for the full effect not named in the record | Potency, µM (titrated, usually from 32.9 µM), for inactives: at the highest dose activity, positive = growth rescue | actives 0.19% (n = 330,000) | AID 485353; active means well fitted rising curve with a large enough effect; inconclusive means small, poorly fitted or top-dose-only effect; inactive means no such curve, though single readings can be large or run the other way; note: 0% is about no effect; nearly all actives have a fitted effect of over 55% in size; growth read by luminescence after 48 h
Active calls of the source: *; ? = inconclusive; nt = no result given; & = joins results of further samples; [ ] = another dose, or the depositor's remark. Unless noted, calls come from the whole dose curve; as a rule, active = well fitted curve in the direction sought with a large enough effect; inconclusive = small, poorly fitted or top-dose-only effect, or another doubt; inactive = no such curve, though single readings can be large; an effect the other way counts as inactive or inconclusive. Potency is the fitted concentration of half-maximal effect.

SMILES	NS1 inh	RE007 growth inh	StopGo reporter	MARV entry inh	Cruzain inh noDet	LASV entry inh	Cruzain inh Det	SARS PLpro yeast
Cc1ccc(C)c(NC(=O)Cc2coc3cc(C)cc(C)c23)c1	nt	nt	-8%	?	-21%	12%[46.1 µM]	-1.9%	nt
O=C(/C=C/Nc1ccc(Oc2ccccc2)cc1)c1ccco1	7%	-28%	-25%	?	nt	?	nt	-2%
CCCN(CCC(=O)Nc1cc(OC)cc(OC)c1)CC1CC1	-9%	7%	-9%	?	7%	5%	2.3%	-7%
COc1ccc(-c2onc(C)c2C)cc1S(=O)(=O)NC1CCCCC1	nt	nt	17%	nt	-7%	-3%[46.1 µM]	-7.7%	nt
O=C(O)c1ccccc1C(=O)c1ccc(Cl)cc1	4%	1%	-13%	nt	nt	nt	nt	1%
O=C(OCc1ccc(Br)cc1)c1cccc(S(=O)(=O)N2CCCC2)c1	nt	-24%	-26%	-14%	nt	-19%	nt	0%
Cc1c(Nc2nc3ccccc3nc2NS(=O)(=O)c2cccs2)c(=O)n(-c2ccccc2)n1C	6%	0%	-8%	9%	0%	12%	-4.0%	6%
CC(=O)c1sc(NC(=O)C(C)(C)C)nc1C	-3%	0%	-2%	-1%	-4%	17%	-0.6%	0%
COc1cc(CNc2nc(C)c([N+](=O)[O-])c(C)c2C#N)cc(OC)c1OC	-4%	-1%	25µM*	?	?	?	-13%	-7%
CSc1nccc(-c2cc(Cl)sc2Cl)n1	6%	-24%	-16%	19%	-6%	8%	-1.2%	1%
CCCN(CCO)C1CCN(CCc2ccccc2)CC1	1%	4%	-8%	nt	nt	nt	nt	0%
COc1ccc(CC(=O)Nc2c(C(=O)N3CCN(c4ncccn4)CC3)oc3ccccc23)cc1OC	4%	3%	18%	nt	nt	nt	nt	-4%
CCN(C(=O)COC(=O)/C=C/c1c(C)nn(-c2ccccc2)c1C)c1c(N)n(Cc2ccccc2)c(=O)[nH]c1=O	nt	-17%	0%	2%	nt	?	nt	nt
COc1ccc(Br)cc1CNC(=O)CN1C(=O)C(c2ccccc2)Oc2cccnc21 (configuration not stated)	5%	-4%	-11%	nt	nt	nt	nt	-21%
CCN1CC(C)(C)N(C(=O)c2ccccc2)CC1(C)C	nt	-6%	-4%	4%	nt	0%[46.1 µM]	nt	nt
Cc1cccc(C(=O)OCc2cncs2)c1	1%	30%	20%	?	nt	11%[46.1 µM]	nt	-1%
CCOC(=O)c1c(-c2cccs2)csc1NC(=O)c1ccncc1	-6%	-9%	-16%	7%&7%	3%	-12%	0.5%	-9%
CCC(Sc1ccc2nnc(CCNS(=O)(=O)c3ccc(OC)cc3)n2n1)C(=O)OC (configuration not stated)	nt	1%	0%&-3%	1%&1%	-7%	?	-1.5%	-2%
COc1ccc(-c2csc(N(CCCN(C)C)C(=O)c3ccc(F)cc3)n2)cc1	2%	3%	-9%	-25%	nt	10%	nt	-5%
CSc1nc(-c2ccco2)nn1S(C)(=O)=O	2%	-6%	6%	2%[46.1 µM]	-5%	?	0.6%	6%
CCN1CCc2c(sc(NC(=O)c3ccc(S(=O)(=O)N(C)C4CCCCC4)cc3)c2C(N)=O)C1	nt	nt	-22%	nt	-3%	?	0.3%	nt
Cc1ccc(Cc2c[nH]c(=S)s2)cc1	nt	?	9%	8%[46.1 µM]	nt	-9%	nt	-4%
O=C(C1CCN(c2nc3ccccc3[nH]2)CC1)N1CCN(c2cccc(Cl)c2)CC1	nt	nt	?	nt	-17%	?	-0.8%	nt
O=[N+]([O-])c1ccc(Nc2ccccc2O)c2nonc12	-78%	-12%	-29%	nt	nt	nt	nt	-17%
CCOC(=O)N1CCC(n2c(SCC(=O)NCCC3=CCCCC3)nc3ccccc3c2=O)CC1	-67%	14%	?	?	?	?	-7.2%	-3%
Cc1cccc(-n2c(O)c(C=NC3CCS(=O)(=O)C3)c3ccccc3c2=O)c1 (configuration not stated)	14%	1%	-4%	2%	-7%	-2%	-2.2%	18%
CCn1ncc(C2=NOC(C(=O)Nc3ccc(C)cc3)C2)c1C (configuration not stated)	-4%	-14%	?	-1%	-3%	-12%	0.1%	-3%
CCCCn1c(-c2ccc([N+](=O)[O-])cc2)n[nH]c1=S	-2%	10%	-1%	0%	1%	?	0.1%	1%
COc1cc(NC(=O)CSc2nnc(-c3cc(C)on3)o2)cc(OC)c1	?	16%	-11%	-30%[46.1 µM]	nt	22%	nt	7%
CCCOc1ccc(-c2cccc(NS(=O)(=O)c3ccccc3)c2)nn1	nt	nt	49%[activator]	nt	-20%	?	-5.6%	nt
NC(=O)COc1ccc(/C=N/NC(=O)C2CCCN2S(=O)(=O)c2ccc(Cl)cc2)cc1 (configuration not stated)	-4%	0%	-17%	17%	13%	4%	-2.7%	2%
O=C(CSc1ncnc2c1cnn2-c1ccc(F)cc1)NCC1CCCO1 (configuration not stated)	0%	-6%	?	nt	nt	nt	nt	3%
Clc1cccc(C2CCN(Cc3nc(COc4ccccc4)no3)C2)c1 (configuration not stated)	-4%	?	-22%	24%[46.1 µM]	nt	13%[46.1 µM]	nt	0%
N#CCOc1coc(CN2CCN(c3ccccc3)CC2)cc1=O	-2%	15%	-3%	nt	nt	nt	nt	-2%
O=C(O)c1cccc(NS(=O)(=O)c2ccc(Oc3ccc(S(=O)(=O)Nc4cccc(C(=O)O)c4)cc3)cc2)c1	nt	11%	-16%	?	nt	7%[46.1 µM]	nt	nt
COc1ccccc1NC(=S)NNC(=O)c1ccncc1	nt	-2%	4%	?	nt	16%[46.1 µM]	nt	-1%
Oc1ccc2ccccc2c1CNn1cnnc1	1%	-6%	nt	8%	-4%	3%	1.8%	2%
Cc1c(C(=O)OCC(=O)NC2CCCCC2)oc2ccccc12	nt	25%	-7%	6%	nt	-11%	nt	1%
O=c1[nH]nc(-c2ccc(F)cc2)cc1-c1ccccc1	1%	3%	-15%	-10%[46.1 µM]	nt	?	nt	-3%
O=C(COC(=O)c1cccc(S(=O)(=O)N2CCCCCC2)c1)Nc1ccccc1	nt	-7%	6%	11%	nt	-4%	nt	-7%
O=C(NN1C(=O)C2C3C=CC(C4CC34)C2C1=O)c1cccc(Br)c1 (configuration not stated)	-3%	0%	-22%	nt	nt	nt	nt	0%
Cc1ccccc1/C=C(\C#N)c1nc(-c2ccc(Cl)cc2)cs1	nt	nt	17%	-13%[46.1 µM]	2%	-1%[46.1 µM]	-1.3%	nt
CC(=O)c1ccc(N2CCN(C(=O)c3ccc(Cn4c(=O)[nH]c5ccccc5c4=O)cc3)CC2)cc1	nt	nt	-30%	nt	-2%	-2%[46.1 µM]	0.0%	nt
COc1ccccc1NC(=O)CN1CCN(CC(=O)Nc2ccc(F)cc2F)CC1	-2%	4%	15%	?	nt	-17%[46.1 µM]	nt	0%
COc1ccccc1NC(=O)C1(c2ccccc2)CCCC1	-7%	12%	-15%	?	nt	17%[46.1 µM]	nt	-2%
COc1cccc(-c2cc(C(=O)NC3CCCCC3)no2)c1	2%	-9%	47%	?	nt	-23%[46.1 µM]	nt	-1%
CCn1c(=O)c2sccc2n2c(CCC(=O)Nc3ccc(OC)c(Cl)c3)nnc12	nt	nt	-11%	-4%[46.1 µM]	5%	17%[46.1 µM]	-0.9%	nt
O=C(NC(=S)N1C[C@H]2C[C@H](C1)c1cccc(=O)n1C2)c1ccc(F)cc1	6%	7%	-3%	nt	nt	nt	nt	-3%
CCc1noc(C)c1C(=O)Nc1nc2c(C)cc(C)cc2s1	nt	2%	-2%	?	nt	9%	nt	-18%
CCCCn1cc2c(c1-c1cccc(C)c1)c(=O)n(C)c(=O)n2C	-3%	15%	-24%	nt	nt	nt	nt	2%
O=C(CSc1ncnc2ccccc12)c1cccs1	nt	?	-39%	?	nt	?	nt	-3%
CCn1c(SCC(=O)NCC(=O)Nc2ccc(F)cc2)nnc1-c1cccs1	0%	9%	nt	4%	-1%	-26%	-4.0%	0%
Cc1ccc(NC(=O)COC(=O)/C(=C/c2cccs2)c2cccs2)cc1S(=O)(=O)N(C)C	?	-22%	-17%	?	?	11µM*	-0.8%	-17%
CCc1ccccc1N(C(=O)c1snc(C(N)=O)c1N)C(C(=O)NCC1CCCO1)c1ccc(C)o1 (configuration not stated)	-10%	3%	-11%	?	nt	?	nt	12%
CC(CCc1ccccc1)NC(=O)Cn1ncc2c3ccccc3n(Cc3ccccc3F)c2c1=O (configuration not stated)	nt	nt	-8%	12%[46.1 µM]	-18%	24%[46.1 µM]	-1.5%	nt
O=C(CNC(=O)c1ccc2c(c1)OCCO2)N/N=C/c1ccco1	4%	3%	11%	15%	nt	?	nt	1%
O=C(Nc1nc2c(s1)CCCC2)c1nn(Cc2ccccc2)c(=O)c2ccccc12	16%	2%	-17%	-39%	?	6%	4.2%	4%
C=CCn1c(N)cc(=O)nc1SCC(=O)N(c1ccccc1)c1ccccc1	6%	-8%	7%	-4%[46.1 µM]	nt	0%	nt	0%
COc1ccc(OC)c(NC2c3ncccc3C(=O)N2Cc2ccco2)c1 (configuration not stated)	?	2%	13%	8%	-1%	-2%	-5.2%	-19%
CCS(=O)(=O)NCc1cn2c(C)csc2n1	-9%	17%	7%	?	-6%	16%	2.7%	4%
More records.
SMILES	NS1 inh	RE007 growth inh	StopGo reporter	MARV entry inh	Cruzain inh noDet	LASV entry inh	Cruzain inh Det	SARS PLpro yeast
CCOc1ccc(C(=O)NCCc2sc(-c3cccc(F)c3)nc2C)cc1OCC	nt	nt	6%	nt	-10%	-24%[46.1 µM]	-7.1%	nt
COC(=O)COC(=O)c1ccc(-n2nnnc2SC)cc1	-10%	-3%	21%	4%	9%	?	5.2%	-16%
COC(=O)C1=CNC=C(C(=O)OC)C1c1cccc2ccccc12	0%	12%	-29%	?	nt	-28%[46.1 µM]	nt	-1%
Cc1ccc(CNC(=O)C2CCN(C(=O)c3cccc(Cl)c3)CC2)cc1	-18%	-4%	-18%	-13%	nt	?	nt	-2%
CC(C)c1onc(C(=O)NC2CCCCC2)c1[N+](=O)[O-]	nt	41%	2%	-1%[46.1 µM]	nt	-5%[46.1 µM]	nt	4%
CCN(CC)CCNC(=O)NC1CCCCC1	12%	12%	-1%	-19%	-6%	16%	-0.6%	-1%
O=C(Nc1cccc(-c2cccc(Cl)c2)c1)C1CCN(Cc2ccccn2)CC1	-8%	-3%	-20%	?	nt	10µM*	nt	0%
